RecA splice inh = Mtb RecA intein splicing inhibitors, primary screen, biochemical, fluorescence, HTS | Protein RecA (Mycobacterium tuberculosis (strain ATCC 25618 / H37Rv)), P9WHJ3 | cell-free RecA intein splicing | inhibition, %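 (about 9 µM by stock and volumes)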 | hit rate 0.75% among 290,000 | AID 2221, 2009; in the data active = inhibition above about 30%; inconclusive = no clear call, values can overlap the other calls;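 also: 0% = vehicle wells and 100% = reference inhibitor control wells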
Target sequence (P9WHJ3 whole entry, looked up, canonical isoform): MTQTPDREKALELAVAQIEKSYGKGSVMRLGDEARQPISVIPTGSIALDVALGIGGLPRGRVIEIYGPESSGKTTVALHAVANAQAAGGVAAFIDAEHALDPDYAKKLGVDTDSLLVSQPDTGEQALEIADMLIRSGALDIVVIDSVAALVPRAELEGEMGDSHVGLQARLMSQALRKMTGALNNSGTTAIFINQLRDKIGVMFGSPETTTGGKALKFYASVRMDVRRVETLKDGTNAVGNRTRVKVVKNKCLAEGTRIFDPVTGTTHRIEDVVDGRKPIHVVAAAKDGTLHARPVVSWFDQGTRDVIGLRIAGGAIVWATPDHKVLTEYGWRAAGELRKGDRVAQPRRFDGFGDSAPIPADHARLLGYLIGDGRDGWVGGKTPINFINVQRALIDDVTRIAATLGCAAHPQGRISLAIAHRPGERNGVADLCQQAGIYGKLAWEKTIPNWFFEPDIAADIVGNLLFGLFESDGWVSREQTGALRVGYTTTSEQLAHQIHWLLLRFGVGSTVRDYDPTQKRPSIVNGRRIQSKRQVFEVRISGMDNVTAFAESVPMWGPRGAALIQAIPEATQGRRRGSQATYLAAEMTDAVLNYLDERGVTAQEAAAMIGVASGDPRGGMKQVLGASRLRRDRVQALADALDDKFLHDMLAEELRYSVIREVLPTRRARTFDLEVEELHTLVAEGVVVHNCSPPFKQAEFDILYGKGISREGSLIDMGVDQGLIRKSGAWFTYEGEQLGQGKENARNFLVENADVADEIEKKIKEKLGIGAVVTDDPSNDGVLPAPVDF
YopH inh = YopH tyrosine phosphatase inhibitors, primary screen, biochemical, fluorescence Ex485/Em525; inhibition, %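 (about 10 µM by stock and volumes)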; hit rate 0.16% among 140,000; AID 898, 2007; YopH tyrosine phosphatase [Yersinia enterocolitica];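 active = inhibition of 50% or more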;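 also: controls were vehicle for no effect and minimum signal wells for full effect; inactives centre near -20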
Arbovirus inh = antivirals against arbovirus infection, primary screen, cell-based, full library, 10K replicate subset. inhibition, % at 10 µM. hit rate 0.37% among 200,000. arbovirus infection cell-based antiviral screen;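 active = inhibition from about 30%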;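 also: bluetongue infection of BSR cells; cell survival read as ATP light after 72 h; 0% = infected wells without compound and 100% = uninfected wells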
Mtb bLac sens = beta-lactam sensitization of Mtb H37Rv, H37Rv. M. tuberculosis H37Rv growth with meropenem, percent inhibition; hits of this screen are not shown here. inhibition, % at 25 µM. hit rate 0.27% among 330,000. AID 434955, 2010;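 active = about 74% or more and at least 40 points above the plate without the antibiotic, then above 30% in a dose series; inconclusive = first-round hits that could not be retested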;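 also: growth measured after seven days incubation then overnight dye step; 0% = bacteria only wells and 100% = bacteria with antibiotic; twin plates without the antibiotic show which effects depend on it; some results filed as inactive read as strong as hits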
Mtb growth = M. tuberculosis H37Rv growth inhibitors, H37Rv strain (AID 1626); M. tuberculosis H37Rv growth inhibition; higher % means a stronger effect; inhibition, % at 10 µM; hits with a dose series show IC50 in µM; hit rate 0.95% among 220,000;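 active = confirmed in a dose series; inconclusive = inhibition above 80% but not taken into the dose series; inactive = below 80% or under 30% at every dose of the series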;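 also: bacteria incubated seven days before Alamar blue readout; 0% = bacteria only wells and 100% = bacteria with antibiotic wells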
Arbovirus inh repeat = also measured in Arbovirus inh; calls as there; inhibition, %; measured here: 10K subset replicate screen; many hits read low in the repeat;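 first of two repeat runs on a subset; 0% = infected and 100% = uninfected wells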
Active calls of the source: *; ? = inconclusive; . = no result given. Not all compounds are listed; the hit share may differ from the screen's.

SMILES	RecA splice inh	YopH inh	Arbovirus inh	Mtb bLac sens	Mtb growth	others
CC(C)(C)NC(=O)NC(=O)COC(=O)c1cccc(NS(=O)(=O)c2ccc(F)c(F)c2)c1	3.1	-20	8	8	2%
COc1ccc(/C=C/C(=O)c2ccc([N+](=O)[O-])o2)cc1	-11	.	.	100	.
O=C(O)c1cccc(Cn2c(Cl)c(/C=N/NC(=O)c3ccco3)sc2=O)c1	2.5	.	.	-10	.
CCOc1ccc(S(=O)(=O)NC(C)C)cc1C(N)=O	0.4	.	4	-2	-2%
O=C(Cn1cccc1)N1CCN(C(c2ccccc2)c2ccccc2)CC1	5.0	-1	11	0	0%
COc1ccccc1-n1c(=O)oc2ccc(Cl)cc2c1=O	.	23	-12	-7	10%
CS(=O)(=O)c1ccc(CNC(=O)C2(C(F)(F)F)C/C(=C/CCO)CCCO2)cc1 (stereo unspecified)	-0.3	.	.	-10	-10%
Cc1ccc(Nc2nc(C)nc3c2oc2ccccc23)cc1	0.3	.	.	67	12%
CCOC(=O)N1CCN(C(=O)CSc2ccc3nnc(CCNC(=O)c4ccccc4)n3n2)CC1	0.3	.	4	-4	3%
CC(=O)c1cc2c(C)c(C(=O)c3ccccc3)oc2cc1O	-1.4	-43	6	10	7%
Cc1nc2ccccc2n1CC(O)Cn1c2ccccc2c2ccccc21 (stereo unspecified)	-0.1	3	2	-4	5%
Cc1cccc(NC(=S)N2CCCCC2)c1	-4.9	-22	-1	0	-1%
CCCCC(=O)NC(=S)NNC(=O)c1ccc(Cl)cc1Cl	15	.	-20	.	0%
COc1ccc(C(=O)N2CCC(C(=O)Nc3ccc4c(c3)OCCO4)CC2)cc1	2.1	-12	3	-1	-8%
CCCC[n+]1ccn(-c2nc3ccccc3nc2[N-]S(=O)(=O)c2ccccc2)c1	-4.8	-23	7	-8	1%
O=C(Nc1cccc(NC(=O)C2CC2)n1)C1CC1	-9.3	-34	-5	-4	-8%
Cc1ccc2oc(=O)n(CC(=O)O)c2c1	-0.1	-37	3	-9	2%	Arbovirus inh repeat=6
Cc1nnc(N/N=C/c2ccco2)n1N	-0.9	.	-5	-3	-1%
O=C(CCC(=O)N(CC(=O)NC1CCCC1)c1ccccc1F)Nc1nccs1	1.5	.	.	-4	.
O=C(CCCCCn1c(=O)[nH]c2ccsc2c1=O)N1CCN(C2CCCCC2)CC1	.	-51	0	3	-1%	Arbovirus inh repeat=4

Next part, starting with the last 6 of the part before.
SMILES	RecA splice inh	YopH inh	Arbovirus inh	Mtb bLac sens	Mtb growth	others
CCCC[n+]1ccn(-c2nc3ccccc3nc2[N-]S(=O)(=O)c2ccccc2)c1	-4.8	-23	7	-8	1%
O=C(Nc1cccc(NC(=O)C2CC2)n1)C1CC1	-9.3	-34	-5	-4	-8%
Cc1ccc2oc(=O)n(CC(=O)O)c2c1	-0.1	-37	3	-9	2%	Arbovirus inh repeat=6
Cc1nnc(N/N=C/c2ccco2)n1N	-0.9	.	-5	-3	-1%
O=C(CCC(=O)N(CC(=O)NC1CCCC1)c1ccccc1F)Nc1nccs1	1.5	.	.	-4	.
O=C(CCCCCn1c(=O)[nH]c2ccsc2c1=O)N1CCN(C2CCCCC2)CC1	.	-51	0	3	-1%	Arbovirus inh repeat=4
COc1ccccc1/C=N/NC(=O)c1ccc(Br)cc1	1.6	.	-4	-1	-1%
COc1ccc(C2(CNC(=O)Cc3ccccc3)CCCC2)cc1OC	0.6	4	2	5	-7%
CS(=O)(=O)NCCSCc1c(F)cccc1Cl	0.6	-2	8	-14	-1%	Arbovirus inh repeat=3
CN(C)C(=S)Nc1ccc2c(c1)OCO2	-0.7	.	2	-4	2%
Cc1cc(C)cc(OCC(=O)N2N=C(c3cccnc3)CC2(O)C(F)(F)F)c1 (stereo unspecified)	0.4	3	5	1	8%
COc1cc(O)c(C(CCN2CCN(c3ccccc3)CC2)c2ccc3c(c2)OCO3)c(OC)c1 (stereo unspecified)	8.9	.	.	84	25%
O=C(O)c1cccc(N2C(=O)CSC2c2c(F)cccc2Cl)c1 (stereo unspecified)	3.0	-19	2	5	4%
COc1ccc(C(=O)Nc2cccc(NC(=O)c3cccs3)c2)cc1	3.6	.	.	4	.
O=C(Nc1ccc(Cl)cn1)C1COc2ccccc2O1 (stereo unspecified)	0.6	.	-3	4	-12%
O=C(Nc1nnc(SCCN2CCOCC2)s1)C1CC(=O)N(c2ccc(F)cc2)C1 (stereo unspecified)	4.7	.	.	-14	.
C=CCOc1ccccc1CNCCNC(=O)c1nonc1N	1.0	.	-2	-20	-4%
CCCC(=O)OCC(=O)Nc1cc(C(C)(C)C)nn1-c1ccccc1	.	-42	-5	-7	-9%
Cc1cccc(Nc2nc(N3CCCCC3)nc(N3CCCCC3)n2)c1	.	-22	13	19	23%
CC1CC(C)CN(CCCNC(=O)c2cc3c(=O)[nH]c4ccccc4c3n2C)C1 (stereo unspecified)	-2.8	.	-15	-8	3%
COC(=O)c1ccc(-n2nnnc2SC)cc1	-0.4	17	-3	6	0%
Cc1cc(OCC(=O)N(C)C2CCCCC2)cc(C)c1Cl	2.9	.	-17	2	6%
CNC(=S)NNC(=O)c1cccn(Cc2cccc(C(F)(F)F)c2)c1=O	1.6	.	.	5	.
Cn1c(CN2CCCC2)nc2cc(NC(=O)COc3ccc(Cl)cc3)ccc21	0.8	6	-10	2	-11%
CCN1C(=O)C(=O)N(CC(=O)Nc2ccccc2Oc2ccccc2)C1=O	1.2	.	1	-4	-5%
CC(C)OCCCN1C(=O)c2ccccc2C1C(=O)NC1CCCCC1 (stereo unspecified)	0.7	-16	10	-9	-1%

An excerpt from above in order of heavy-atom count, ascending.
SMILES	RecA splice inh	YopH inh	Arbovirus inh	Mtb bLac sens	Mtb growth	others
CNC(=S)NNC(=O)c1cccn(Cc2cccc(C(F)(F)F)c2)c1=O	1.6	.	.	5	.
CC1CC(C)CN(CCCNC(=O)c2cc3c(=O)[nH]c4ccccc4c3n2C)C1 (stereo unspecified)	-2.8	.	-15	-8	3%
O=C(Nc1nnc(SCCN2CCOCC2)s1)C1CC(=O)N(c2ccc(F)cc2)C1 (stereo unspecified)	4.7	.	.	-14	.

(continued)
SMILES	RecA splice inh	YopH inh	Arbovirus inh	Mtb bLac sens	Mtb growth	others
COc1ccc(NC(=O)C(C)SCc2ccccc2)cc1 (stereo unspecified)	0.3	.	-5	7	3%
CCOC(=O)c1c(-c2ccsc2)csc1N	20	-16	-13	51	-5%
CN(CC(=O)Nc1cccc(F)c1)C(=O)c1cn(-c2ccccc2)nc1-c1ccccc1	6.1	.	.	11	.
Cc1c(C(=O)N2CCOCC2)c(S(=O)(=O)Nc2ccc(OC(F)(F)F)cc2)c(C)n1C	-0.4	.	.	-3	.
Cc1ccc(-n2nnc3c(=O)n(CC(=O)NCC4CCCO4)cnc32)cc1 (stereo unspecified)	1.6	-25	10	-9	-15%
COc1ccc(-c2csc(NC(=O)C3CSC4(C)CCC(=O)N34)n2)cc1OC (stereo unspecified)	1.3	.	.	4	.
O=C(c1ccc(S(=O)(=O)N2CCCC2)cc1)N1CCCc2ccccc21	0.5	-37	2	90	4%	Arbovirus inh repeat=-8
O=C(OCC(=O)N1CCCCCC1)c1ccc(S(=O)(=O)N2CCOCC2)cc1	-1.2	.	11	-5	-11%
CC12CCC(=O)N1C(C(=O)NNC(=O)COc1cccc(C(F)(F)F)c1)CS2 (stereo unspecified)	0.5	.	.	0	.
COC(=O)CN(C)C(=O)c1ccccc1OC1CCN(S(C)(=O)=O)CC1	1.6	.	.	1	.
COc1ccc(C(=O)N/C(=C/c2cccc3ccccc23)C(=O)NCCc2c[nH]c3ccccc23)cc1OC	0.6	-16	1	6	4%
CCSc1nc2nc(C)cc(C)n2n1	0.9	-21	-1	1	4%
Cc1cccc(NC(=O)CSCC(=O)NNC(=O)c2ccoc2C)c1	-2.2	.	.	10	.
CCn1nccc1C(=O)Nc1ccc(C)c(C)c1	-1.0	.	.	6	.
CNS(=O)(=O)c1cccc(C(=O)OCC(=O)Nc2cc(F)ccc2F)c1	2.7	.	5	-6	4%
CCOC(=O)c1nnc2cc(C)nn2c1C	1.9	.	.	-10	-2%
CCc1ccccc1NC(=S)N(CCCN1CCOCC1)Cc1cccs1	-3.0	-22	8	-4	-4%
CC(C)c1onc(C(=O)N(C)C2CCCCC2)c1[N+](=O)[O-]	-2.3	.	6	3	3%
CCNCC(O)c1cccc(O)c1 (stereo unspecified)	1.3	.	.	98	.
C=CCSc1nnc(-c2ccccc2N=Cc2c(C)[nH]n(-c3ccccc3)c2=O)c(=O)[nH]1	.	-22	7	62	1%
Fc1ccc(CSc2nsc(SCc3ccc(F)cc3)n2)cc1	5.8	0	4	37	19%
COc1ccccc1NC(=O)CCN1CCN(c2ccc(Cl)cc2)CC1	3.1	.	.	3	.
COC(=O)CCSc1nccn1Cc1ccccc1	-0.4	-33	6	-1	-7%
COc1ccc(-c2noc(-c3ccccc3Cl)n2)cc1OC	4.7	-16	18	4	5%
N#CCc1c(C#N)c(N)nc(N2CCCC2)c1C#N	0.6	.	.	-7	-9%
Cc1ccc(S(=O)(=O)N2CCCC2CNC(=O)C(=O)NC2CCCC2)cc1 (stereo unspecified)	-0.6	.	.	1	.
COC(=O)c1ccc(NC(=O)c2ccc(NC(=O)C3CCCO3)cc2)cc1 (stereo unspecified)	-1.5	.	-4	40	10%
Cc1ccc(Cn2cccc(NC(=O)CCC3CCCC3)c2=O)cc1	13	.	.	7	.
O=C(OCc1cncs1)c1ccccc1Cl	6.0	.	3	-4	3%
O=C(Nc1ccc2c(c1)OCCO2)c1cnc2ccccn2c1=O	-0.4	-18	.	-4	-3%
CCN(CC)S(=O)(=O)c1cccc(-n2c(O)c(C=Nc3ccccc3C(=O)O)c3ccccc3c2=O)c1	-0.7	.	.	-6	-5%
CCCn1c(=O)c2c(C(F)(F)F)cc(-c3ccco3)nc2n(CCC)c1=O	-3.8	-3	0	2	14%
O=C(O)CC1(CC(=O)Nc2cccc(C(=O)O)c2)CCCC1	-1.2	.	.	5	.
CC(Oc1ccccc1Cl)C(=O)N(Cc1cccs1)C1CCS(=O)(=O)C1 (stereo unspecified)	-1.1	.	.	0	.
Cc1sc(NC(=O)COc2ccccc2)c(C#N)c1C	-5.0	.	1	-6	2%
CC(C(=O)OCC(=O)c1ccc(F)cc1)N1C(=O)C2C3C=CC(C3)C2C1=O (stereo unspecified)	0.4	.	.	-2	.
Cc1nn(CC(=O)NCCC2=CCCCC2)c(C)c1[N+](=O)[O-]	0.8	.	.	-1	.
CC(=O)Nc1ccc(C(=O)Nc2nc(-c3cc(C)n(Cc4ccccc4)c3C)cs2)cc1	-0.4	-3	-8	2	0%
COc1cccc(Cn2nnc3c(=O)[nH]c(C4CCCN(C(=O)c5ccccc5Cl)C4)nc32)c1 (stereo unspecified)	0.8	-36	-14	13	4%
COc1ccc(C(=O)COC(=O)COc2cccc3c2OC(C)(C)C3)c(OC)c1	2.6	.	.	57	.
COCCn1c(N)c(Sc2ccccc2)c(=O)[nH]c1=O	0.3	.	.	-9	.
Cc1sc(N)c(C#N)c1C	-7.1	-5	-1	2	4%
O=C1CC(c2ccccc2)n2nc(NS(=O)(=O)c3ccccc3)nc2N1 (stereo unspecified)	1.5	-34	-1	-5	9%
COc1ccc2c(COC(=O)CNC(=O)C34CC5CC(CC(C5)C3)C4)cc(=O)oc2c1	-3.0	-12	-3	-4	-1%
CN(C(=O)c1ccc2c(=O)n3c(nc2c1)CCCCC3)c1ccccc1	-1.0	-1	0	0	-5%
COc1ccc(CNC(=O)CN(C(=O)c2snc(C(N)=O)c2N)c2ccc(OC)c(OC)c2)cc1	-1.3	.	.	4	.
COc1ccccc1-n1c(SCC(=O)N2CCCCC2)nnc1-c1ccccc1O	-1.4	-22	-4	2	-1%
CC(C(=O)NCCS(=O)(=O)c1ccc(Cl)cc1)S(=O)(=O)c1ccccc1 (stereo unspecified)	3.8	.	-3	-4	-1%
COc1cc(/C=N/n2c(COc3ccccc3)n[nH]c2=S)cc(OC)c1OC(C)=O	-4.5	.	.	?	.
CC[C@H](C)[C@H](NC(N)=O)C(=O)Nc1ccccc1F	1.4	.	-2	-1	-5%
CC(=O)NCC(=O)N(c1ccccc1)C1(C(=O)NC2CCCCC2)CCCCC1	1.8	-21	19	1	1%	Arbovirus inh repeat=2
Cc1cc(OCC(=O)NCc2nc(-c3ccccc3)no2)c(C)cc1Br	-0.6	0	-4	-3	-3%
CCOC(=O)CNC(=O)c1cnn2cccnc12	-11	-8	-2	-15	-5%

Screening data (PubChem)
